VDR inhibitor – inhibitors of human vitamin D receptor; P11473; VDR-SRC2-3 peptide fluorescence polarization, 2 h; Potency, µM, without a hit: max response, negative = inhibition, usual class: inhibitors; hit rate 0.93% among 400,000; AID 504847; active means well fitted inhibition curve with a large enough effect; inconclusive means small, poorly fitted or top-dose-only effect, or another doubt; inactive means no such curve, though single readings can be large or run the other way; further: series mostly up to about 120 µM
Target sequence (P11473 whole entry, looked up): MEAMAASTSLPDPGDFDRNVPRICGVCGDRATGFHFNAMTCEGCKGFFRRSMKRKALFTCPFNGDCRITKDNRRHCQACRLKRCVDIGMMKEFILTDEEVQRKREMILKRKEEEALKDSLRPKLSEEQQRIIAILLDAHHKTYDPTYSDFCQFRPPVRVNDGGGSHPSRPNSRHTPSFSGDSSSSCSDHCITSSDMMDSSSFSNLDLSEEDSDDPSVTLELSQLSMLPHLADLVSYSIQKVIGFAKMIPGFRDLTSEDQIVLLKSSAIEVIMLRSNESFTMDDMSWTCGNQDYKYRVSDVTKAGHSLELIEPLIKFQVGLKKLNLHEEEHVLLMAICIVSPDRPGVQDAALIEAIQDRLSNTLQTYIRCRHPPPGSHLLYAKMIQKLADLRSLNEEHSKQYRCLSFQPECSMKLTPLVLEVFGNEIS
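Reagent solutions, kept cold and dark, are dispensed first; compounds are then pinned in at 23 nl, plates briefly spun, and incubated 2 h at ambient temperature. Inhibition of VDR–SRC2-3 peptide binding is read by fluorescence polarization.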
* hit, by the source's call; ? = inconclusive; & = joins results of further samples. On the % scale 0 is the no-effect control and ±100 the full control effect; potency means the concentration at half of the fitted maximal effect. An excerpt (hit frequency here may not be typical).

| molecule | VDR inhibitor |
| --- | --- |
| CC(Oc1cc(Cl)ccc1Cl)C(=O)N/N=C\c1ccnn1C (stereo not drawn) | 12.0% |
| Cc1ccc2[nH]c3c(=O)n(CC(=O)N(CCN(C)C)Cc4ccccc4)ncc3c2c1 | 19.3% |
| Cn1c(=S)[nH]c(=O)c2ncc(=O)[nH]c21 | 5.8% |
| OCCOCCOc1cccc2[nH]ccc12 | 10.7% |
| O=C(CSc1ncccn1)NN=C1CCCCCC1 | -7.8% |
| O=C(CNS(=O)(=O)c1cccs1)N1CCCCC1 | 13.8% |
| Cc1ccc2c(=O)c(C(=O)c3ccccc3)cn(CC(=O)Nc3ccccc3)c2n1 | 8.5% |
| O=C1N=C(N2CCN(c3ccccc3)CC2)S/C1=C/c1cccs1 | 0.4% |
| O=C(NCCOc1ccccc1)C(c1ccccc1)c1ccccc1 | 10.1% |
| CC(C)OC(=O)c1cccnc1SCC(=O)Nc1ccc(C(F)(F)F)cc1Cl | 3.3% |
| CC(Sc1cccc[n+]1[O-])C(=O)Nc1ccc([N+](=O)[O-])cc1Cl (stereo not drawn) | -16.6% |
| COc1cc(OC)c(NC(=O)CCNS(=O)(=O)c2cc(Br)cnc2N)cc1Cl | 5.2% |
| COc1cccc(/C=N/NC(=O)C(=O)NCc2ccco2)c1O | 1.3% |
| CNC(=O)C12CC3CC(CC(Cl)(C3)C1)C2 | -6.1% |
| Cc1ccc(CCNC(=O)c2ccc(CS(=O)(=O)c3ccc(Br)cc3)o2)cc1 | -16.1% |
| CCC1CN(C(=O)N2CCC(C(=O)NCc3ccc(OC)cc3OC)CC2)c2ccccc2O1 (stereo not drawn) | 16.3% |
| COc1cccc(C(=O)NCC(=O)N/N=C/c2cn[nH]c2-c2ccccc2)c1 | -22.6% |
| CCCCOc1ccc(NC(=O)c2cc3c(n(-c4ccc(Cl)cc4)c2=O)CCCC3=O)cc1 | -11.5% |
| COc1cc(Cn2c(=O)oc3ccc(C)cc32)ccc1OC(C)C | 2.9% |
| COc1ccc(NC(=O)Nc2cccc3c2O[C@H](CN(C)C(=O)Nc2ccccc2)[C@@H](C)CN([C@H](C)CO)C3=O)cc1 | -3.2% |
| O=C(/C=C/c1ccco1)N1CCN(c2ncccn2)CC1 | -17.1% |
| CN(C)c1cc(Cl)c2nonc2c1N | ? |
| O=C(CCn1c(=O)oc2ccc(Cl)cc21)N1CCN(Cc2ccccc2)CC1 | -11.4% |
| CCOC(=O)c1c(C)[nH]c(C)c1S(=O)(=O)N1CCC(C(=O)NCc2ccccc2)CC1 | 4.5% |
| O=C(OCc1ccccc1F)c1ccc2c(c1)-c1ccccc1C2=O | -4.5% |
| O=C(Nc1ccc(NC(=O)c2ccccc2)nc1)c1ccncc1 | ? |
| O=C(NC(=S)Nc1ccc(N2CCN(C(=O)c3ccccc3)CC2)cc1)c1cccs1 | 10.3% |
| CCOc1ccc(C2C(C(=O)c3ccc(C)o3)=C(O)C(=O)N2Cc2cccnc2)cc1 (stereo not drawn) | -1.4% |
| CCN1C(=O)C(CC(=O)Nc2ccc(Br)cc2)N(CCCc2ccccc2)C1=S (stereo not drawn) | 15.3% |
| Cc1cc(C)cc(OCC(=O)OCC(=O)NC2CC2)c1 | 2.1% |
| COC/C=C/C1=CC2=CC(=O)C(C)(OC(=O)c3cnc4ccccc4n3)C(=O)C2=CN1c1ccccc1 (stereo not drawn) | -29.0% |
| COc1ccc(C2c3c(oc4ccc(Cl)cc4c3=O)C(=O)N2CCN2CCOCC2)cc1 (stereo not drawn) | 9.6% |
| CCCCCCSc1ccc(-c2nc3cnccn3c2NCCCC)cc1 | -3.0% |
| COc1cccc(CN2C(=O)c3ccccc3S2(=O)=O)c1 | -8.9% |
| COc1cc(SC)ccc1C(=O)NCCc1c[nH]c2ccccc12 | -4.3% |
| COC1=C/C(=C/c2c(N)n3cc(C)sc3nc2=O)C=CC1=O | -5.4% |
| Cc1nc2nc(SCC(=O)NCc3ccccc3Cl)nn2c(C)c1Cc1ccccc1 | -6.3% |
| CC1CCN(C(=O)c2[nH]cnc2C(=O)NCc2ccccc2)CC1 | -4.9% |
| CC(C)(C)c1nnc(NC(=O)c2ccc(Cl)nc2)s1 | -9.8% |
| O=C(CC1SC(N2CCOCC2)=NC1=O)Nc1cccc(C(F)(F)F)c1 (stereo not drawn) | -14.2% |
| COC(CNC(=O)[C@H](Cc1ccccc1)N1Cc2ccccc2C1=O)OC | 7.2% |
| NC(=O)C1CCN(C(=O)C2c3ccccc3C(=O)N3CCc4ccccc4C23)CC1 (stereo not drawn) | -14.3% |
| CC(C)CNC(=O)c1ccccc1NC(=O)/C=C/c1cccc([N+](=O)[O-])c1 | 2.9% |
| COc1ccc(Nc2cccc3ccccc23)cc1 | -2.2% |
| O=C(O)CCCn1c(O)c(C=C2N=c3ccccc3=N2)sc1=S | -7.3% |
| CC(=O)N1CCN(C(=O)C(=O)Nc2c3c(nn2-c2ccc(Cl)cc2)CSC3)CC1 | -4.4% |
| COCCNC(=O)C(c1ccc(O)cc1)N(Cc1ccco1)C(=O)CCC(=O)Nc1nccs1 (stereo not drawn) | 15.5% |
| CCN1C(=O)c2cccc3c(S(=O)(=O)Nc4ccccc4OC)ccc1c23 | -7.6% |
| O=C(Nc1cc2c3c(c1)C1CCCC1CN3CC1CCCC21)c1ccc([N+](=O)[O-])cc1 (stereo not drawn) | 10.1% |
| COc1cccc(OC)c1C(=O)Nc1ccc(N2CCCC2)cc1 | 2.9% |
| COC(=O)c1ccc(C)c(NC(=O)CSc2nnc3ccccn23)c1 | -11.1% |
| CN(c1ccccc1)S(=O)(=O)c1cc(C(=O)c2nccn2C)ccc1Cl | -16.4% |
| COC(=O)c1cccc(NC(=O)CN2CCN(c3ccc(OC)cc3)CC2)c1 | -20.2% |
| O=C(c1cc(COc2c(F)cccc2F)on1)N1C[C@H]2CC[C@H]1C2 | 5.6% |
| c1ccc2c(c1)CC(N1CCN(c3cccc4c3OCCO4)CC1)C2 | 10.6%&-0.1% |
| CCOC(=O)c1cc(-c2ccc(C)cc2)n(CCC(=O)NCCc2ccc(C)cc2)c1C | -17.6% |
| COc1cccc(NC(=S)N(CCCN2CCOCC2)C(C)c2cc3cccc(OC)c3o2)c1 (stereo not drawn) | 1.0% |
| C[C@@H]1OC(OC2CC[C@@]3(C)C(CC[C@@]4(C)C3CC=C3C5CC(C)(C)CC[C@]5(C(=O)OC5OCC(O)[C@@H](O)[C@@H]5OC5O[C@@H](C)[C@H](O[C@H]6OC(CO)C(O)C(O)C6O)C(O)C5O)C(O)C[C@@]34C)C2(C)C)C(O)C(O)[C@H]1OC1OCC(O)C(O)[C@H]1O (stereo partly drawn) | -2.3% |
| Cc1cc(O)cc(O)c1-c1onc(C(F)(F)F)c1-c1cscn1 | 0.7% |
| O=C(Nc1ccc2nccnc2c1)c1cnccn1 | -15.5% |

Additional results:
| molecule | VDR inhibitor |
| --- | --- |
| Cc1ccc(C(NC(=O)C2CCCCC2)c2c(O)ccc3ccccc23)cc1 (stereo not drawn) | -20.5% |
| CCOC(=O)C1CCCN(S(=O)(=O)c2cc(Br)cc3c2N(C(=O)CC)CC3)C1 (stereo not drawn) | -7.9%&-8.2% |
| COCCCNC(=O)CCSc1ccc(C)cc1 | -4.7% |
| Nc1ccc(-c2ccc(N)c([N+](=O)[O-])c2)cc1[N+](=O)[O-] | -1.6% |
| O=C(CN(C1CCCCC1)S(=O)(=O)c1ccc(Cl)cc1)N1CCOCC1 | 8.2% |
| CC(=O)Nc1ccc(S(=O)(=O)N(C)CC(=O)NNC(=O)Cc2nc3ccccc3n2C)cc1 | -8.8% |
| Cc1ccc(-c2nc3cc(NC(=O)C(C)C)ccc3o2)cc1C | -4.5% |
| Cc1cccc2cc(CN(Cc3ccco3)C(=O)NC3CCCCC3)c(=O)[nH]c12 | 2.6% |
| CCc1ccc(NC(=S)Nc2cccc(OC)c2)cc1 | -14.5% |
| O=C(OCn1nnc2ccccc2c1=O)c1ccc(Br)o1 | 15.6% |
| COc1ccc(CN2CCNC(=O)C2CC(=O)NCc2cc(C)n(C)n2)c(F)c1 (stereo not drawn) | -3.8% |
| COc1ccc(-c2nnc(SCc3c(C)noc3C)o2)cc1 | -24.9% |
| O=C(CSc1nc(N2CCCCC2)nc(N2CCCCC2)n1)Nc1nccs1 | -4.2% |
| Cc1c(CN(C)C(=O)/C=C/c2ccc([N+](=O)[O-])cc2)cnn1C | 6.9% |
| Cc1cc(C)c(NC(=S)NCCO)c(C)c1 | -11.6% |
| CCOc1ccc(CNC(=O)CS(=O)(=O)c2cccc3nsnc23)cc1 | 6.1% |
| COc1cc2oc3ccccc3c2cc1N(CC(=O)N(C)C)S(=O)(=O)c1ccc(C)cc1 | 9.1% |
| Cc1c[n+](C)ccc1CC1C([N+](=O)[O-])=C[N-]c2ncnn21 (stereo not drawn) | -9.7% |
| Cc1cccc(NC(=O)c2ccc(NC(=O)CC3SC(N4CCCC4)=NC3=O)cc2)n1 (stereo not drawn) | -9.9% |
| Cc1c(C(=O)OCCOc2ccccc2)[nH]c2c1C(=O)CCC2 | 1.9% |
| COc1cc(Cl)cc(C2NC(=O)NC(C)=C2C(=O)NCc2ccccc2)c1O (stereo not drawn) | -25.7% |
| COc1ccc(C2Nc3ccccc3C(=O)N2Cc2ccco2)cc1COc1ccc([N+](=O)[O-])cc1 (stereo not drawn) | 4.9%&0.7% |
| C=CCN1C(=O)c2ccccc2C1(O)Cc1ccccc1 (stereo not drawn) | -0.1% |
| CC1=Nc2cc(C(=O)NC(C)C)ccc2Sc2ccc(C)cc21 | -10.5% |
| O=C(c1cc(-c2ccccc2)nc2ccccc12)N1CCc2ccccc2C1 | 4.9% |
| Cc1ccc(N(Cc2cccs2)C(=O)c2ccc(OC(C)C)cc2)cc1 | 1.6% |
| Cc1ccc(SCc2cc(=O)[nH]c(SCC(=O)Nc3cc(Cl)ccc3Cl)n2)cc1 | 4.9% |
| CC(OC(=O)CSc1ccc(F)cc1)C(=O)NC1(C#N)CCCCC1 (stereo not drawn) | -2.4% |
| O=C(OCC(=O)N1CCc2ccccc21)c1c2c(nc3ccccc13)CCCC2 | -25.7% |
| COc1ccc(/C=N/NC(=O)CN2CCCc3ccccc32)c(OC)c1 | 3.8% |
| CCOc1cccc(C(=O)Nc2nnc(-c3cccs3)s2)c1 | -7.5% |
| O=C(Nc1ccc(Nc2ccccc2)cc1)c1ccc(Br)o1 | ? |
| O=C(NCC1CCCO1)c1cc(S(=O)(=O)Nc2ccc(Br)cc2)ccc1Cl (stereo not drawn) | -3.7% |
| C=CCN1C(=O)/C(=C\c2ccc(Oc3nc(N4CCOCC4)nc(N4CCOCC4)n3)c(OC)c2)SC1=S | -12.6% |
| C/C(N)=C(/C#N)C(=O)CSc1nc2ccccc2c(=O)n1CCCOC(C)C | 8.1% |
| COc1ccc(NC(=O)CSc2n[nH]c(=O)n2C2CC2)cc1Cl | 7.0% |

2 successive records from above, for reference:
| molecule | VDR inhibitor |
| --- | --- |
| O=C(c1cc(-c2ccccc2)nc2ccccc12)N1CCc2ccccc2C1 | 4.9% |
| Cc1ccc(N(Cc2cccs2)C(=O)c2ccc(OC(C)C)cc2)cc1 | 1.6% |

Other records:
| molecule | VDR inhibitor |
| --- | --- |
| COc1ccc(-c2csc(-c3cccnc3)n2)cc1C | -12.9% |
| Cc1ccc(OCCSc2nc3ccccc3n2CC(=O)O)c(C(C)C)c1 | -8.5% |
| C[C@@]12CCC=C[C@H]1[C@H](c1ccc3ccccc3c1Br)N(Cc1ccccc1)C2=O | ? |
| CC1(C)N=C(c2ccc(F)cc2)C(=O)N1CC(=O)Nc1ccccc1Cl | 14.8% |
| CCN(CC)c1ccc(CNc2ccc3c(c2)ncn3CC)cc1 | 8.2% |
| CCCCc1nn2c(=O)cc(COC(=O)c3ccccc3NC(=O)C3CCCCC3)nc2s1 | 4.8% |
| Cc1cc2cc(CNC(=O)Nc3ccccc3)ccc2n1C | 13.4% |
| Cc1ccccc1C(CC(=O)c1cccs1)C(C#N)C#N (stereo not drawn) | ? |
| CC(C)Cn1c(N)c(C(=O)COC(=O)c2cc(-c3ccccc3)nc3ccccc23)c(=O)n(C)c1=O | -0.1% |
| CC(C)[C@H](NC(=O)C1CCC(CNC(=O)[C@@H]2CCCN2C(=O)OC(C)(C)C)CC1)C(=O)O (stereo partly drawn) | -0.2% |
| CCn1c(SCc2ccccc2)nc2c(c1=O)SCC2 | -2.2% |
| Cc1c(NC(=O)c2cc(S(=O)(=O)N3CCCCC3)ccc2Cl)c(=O)n(-c2ccccc2)n1C | -5.2% |
| COc1ccc(-c2cc(C(=O)Oc3ccc(C)cc3)c3ccccc3n2)cc1 | -11.7% |
| N#Cc1ccccc1NC(=O)COC(=O)C1CCN(C(=O)c2ccc(Cl)cc2)CC1 | -0.2% |
| CCC(C)NCCOCCOc1ccccc1-c1ccccc1 (stereo not drawn) | -1.5% |
| Cc1nnc(-c2cnn(C)c2N)n1Cc1ccccc1F | -4.5% |
| CCC(Cc1ccccc1)NC(=O)C1CCN(S(=O)(=O)c2ccc3c(c2)CC(C)N3C(C)=O)CC1 (stereo not drawn) | -3.9% |
| CC1(C)CC2CC(C)(CN2C(=S)Nc2ccccc2F)C1 (stereo not drawn) | -7.3% |
| COCCn1cnnc1SCC(=O)Nc1cccc(S(=O)(=O)N(C)c2ccccc2)c1 | -11.2% |
| Cc1cc(Br)cc(C)c1NC(=O)c1cnc2ccccn2c1=O | -15.0% |
| O=C1c2ccccc2C(=O)N1C1(C(=O)NC2(C(=O)O)CCCC2)CCCC1 | 11.0% |
| CC1=CC(=O)CC(C)(C)C1(O)/C=C/C(C)=C/C(=O)O (stereo not drawn) | -1.8%&-15.1% |
| S=C(c1ccc(Cl)cc1)N1CCN(Cc2ccccc2)CC1 | 15.7% |
| CC(C)C[C@H](NC(=O)OC(C)(C)C)c1nnc(SCC(=O)Nc2ccc(Br)cc2)o1 | 0.8% |
| Cc1cccc(CSCCNC(=O)CN(c2ccccc2)S(=O)(=O)N(C)C)c1 | -2.5% |

Assay outcomes from PubChem BioAssay.
